Screens: PubChem BioAssay, Broad Institute
MLL AF4-AF9 inh = inhibitors of AF4 peptide binding to AF9, primary screen, biochemical, AlphaScreen, biotin-AF4 peptide, FLAG-AF9, single point. AID 651704, 2012. Protein AF-9 (Homo sapiens), P42568. 350,000 tested, 0.47% active. inhibition, % at 10 µM;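 active = every replicate reaching a set inhibition limit, whatever the replicate mean, cut at about 25% in these data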;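 note: 0% = plate neutral control median and 100% = total signal loss; the record names both 10 and 1 µM as test concentration; the first replicate is given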
Target sequence (P42568 whole entry, looked up): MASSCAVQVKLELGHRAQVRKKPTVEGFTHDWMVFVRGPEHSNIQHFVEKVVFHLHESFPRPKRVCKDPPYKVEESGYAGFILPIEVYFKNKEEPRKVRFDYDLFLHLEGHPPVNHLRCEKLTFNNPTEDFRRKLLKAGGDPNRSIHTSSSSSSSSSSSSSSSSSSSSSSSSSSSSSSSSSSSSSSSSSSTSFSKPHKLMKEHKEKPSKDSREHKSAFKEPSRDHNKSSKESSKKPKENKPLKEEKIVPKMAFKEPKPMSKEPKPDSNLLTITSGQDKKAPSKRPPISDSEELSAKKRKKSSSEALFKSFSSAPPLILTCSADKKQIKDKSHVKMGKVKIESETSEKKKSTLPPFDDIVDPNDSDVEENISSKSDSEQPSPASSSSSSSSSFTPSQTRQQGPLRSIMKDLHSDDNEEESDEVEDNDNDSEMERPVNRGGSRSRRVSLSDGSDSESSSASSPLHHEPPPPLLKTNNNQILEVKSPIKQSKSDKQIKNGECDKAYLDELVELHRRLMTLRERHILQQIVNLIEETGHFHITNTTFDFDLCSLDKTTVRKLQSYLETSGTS
Active calls of the source: *; & = joins results of further samples.

SMILES	MLL AF4-AF9 inh
C[C@@H]1CN([C@H](C)CO)C(=O)c2cc(NS(=O)(=O)c3cccs3)ccc2O[C@H]1CN(C)CC1CC1	-4.3
CO[C@@H]1CN(C)C(=O)c2ccc(NC(=O)c3ccccc3F)cc2OC[C@@H](C)N(C(C)=O)C[C@@H]1C	1.7
CCCN1[C@H](C(=O)N2CCCCC2)[C@@H](CO)[C@@H]2Cn3c(cccc3=O)[C@@H]21	-0.8
O=C(C[C@H]1C[C@@H]2c3cc(NC(=O)CC4CC4)ccc3O[C@@H]2[C@H](CO)O1)NCc1ccncc1	-5.2
CN1C(=O)c2cc(NC(=O)Cc3cccs3)ccc2OC[C@@H]2O[C@@H](CC(=O)NCC3CC3)CC[C@@H]21	-13
C[C@H](CO)N1C[C@H](C)[C@H](CN(C)C(=O)CCC(F)(F)F)OCCCC[C@H](C)Oc2ccc(NS(=O)(=O)c3ccccc3)cc2C1=O	2.9
C[C@@H]1CN([C@H](C)CO)C(=O)c2cc(NC(=O)Nc3ccccc3)ccc2O[C@@H](C)CCCCO[C@@H]1CN(C)C(=O)c1ccccc1	-11
CCCN(C)C[C@@H]1Oc2cc(Br)ccc2S(=O)(=O)N([C@@H](C)CO)C[C@@H]1C	-0.2
Cc1ccc(S(=O)(=O)NC[C@H]2CC[C@H]3[C@H](CN3Cc3cc(F)ccc3F)O2)cc1	-1.4
Cc1ccccc1-c1cccc([C@@H]2C[C@H]3[C@H](CON3C)CN2S(=O)(=O)c2ccccc2C)c1	-17
CO[C@H]1CC[C@H]2CCN(C)C(=O)[C@@H](C)CN(C)C(=O)c3cc(C#N)ccc3OC[C@H]1O2	1.4
CCCCCCC12C(=Cc3cc(C)ccc31)c1ccccc1C(CC(=O)NCc1ccccc1)N2C(=O)OC (stereo not given)	-4.1
O=C(C[C@@H]1CC[C@H]2[C@@H](COC[C@H](O)CN2CC2CC2)O1)NCC1CC1	-0.4
C[C@@H]1CN([C@H](C)CO)S(=O)(=O)c2ccc(-c3ccc(C(=O)N(C)C)cc3)cc2O[C@@H]1CN(C)C(=O)Nc1ccccc1F	-1.7
C[C@@H]1CCCCO[C@@H](CN(C)C(=O)NC2CCCCC2)[C@@H](C)CN([C@H](C)CO)C(=O)c2cc(NC(=O)CCCCCC(=O)Nc3ccccc3N)ccc2O1	-3.0
CCN1[C@@H]2Cn3c(ccc(-c4cccnc4)c3=O)[C@H]1[C@@H](C(=O)NCc1ccccc1)[C@@H]2CO	0.3
C[C@H](CO)N1C[C@H](C)[C@@H](CN(C)C)Oc2ccc(NC(=O)Nc3cccc4ccccc34)cc2CC1=O	4.6
CN(C)CCNc1cccc2sc3ccc(O)cc3c(=O)c12	38*
C[C@@H]1CN([C@H](C)CO)C(=O)Cc2cc(NC(=O)C3CC3)ccc2O[C@@H]1CN(C)S(C)(=O)=O	-0.8
C[C@@H]1CN([C@H](C)CO)S(=O)(=O)c2ccc(C3=CCCC3)cc2O[C@H]1CN(C)C	-0.8
CCCNC(=O)N1[C@H](C#N)[C@@H](c2ccccc2-c2cccc(C)c2)[C@@H]1CO	-1.9
COc1ccccc1-c1ccccc1[C@@H]1[C@@H](CO)N(C(=O)C2CCC2)[C@H]1C#N	4.2
C/C=C/c1ccc2c(c1)O[C@@H](CN(C)S(=O)(=O)c1ccc(F)cc1)[C@@H](C)CN([C@@H](C)CO)S2(=O)=O	11
CC(C)(C)[S@@](=O)N1Cc2cc(C(=O)NCc3ccncc3)nc(-c3cccc(-c4ccc(C#N)cc4)c3)c2[C@H]1CCO	-1.0
CN1[C@H](C(=O)NC2Cc3ccccc3C2)[C@@H](CO)[C@@H]2Cn3c(ccc(-c4ccccc4)c3=O)[C@@H]21	0.2
COc1ccc(S(=O)(=O)N(C)C[C@H]2Oc3ccc(NC(=O)NC4CCCCC4)cc3C(=O)N([C@@H](C)CO)C[C@H]2C)cc1	1.6
C[C@@H]1CN([C@@H](C)CO)C(=O)c2cccc(NC(=O)C3CCCCC3)c2O[C@H]1CN(C)C(=O)Nc1ccc(C(F)(F)F)cc1	1.0
Cc1ccc(-c2ccccc2[C@H]2[C@@H](C#N)N(c3ncc(-c4ccccc4)s3)[C@@H]2CO)cc1	1.3
CC=Cc1ccc2n(c1=O)C[C@H]1[C@H](CO)[C@@H](C(=O)NCC(F)(F)F)N(C(=O)c3cccnc3)[C@@H]21 (mixture of isomers)	-0.3
C[C@@H]1CN([C@H](C)CO)C(=O)c2cccc(NS(=O)(=O)c3ccccc3)c2O[C@@H]1CN(C)Cc1ccc(C(=O)O)cc1	-0.6
NC(CO)c1csc(NC(=O)Nc2ccccc2Cc2ccccc2)n1 (stereo not given)	8.9
COc1ccc(CN(C)C[C@@H]2OCCCC[C@@H](C)Oc3ccc(NS(=O)(=O)c4cn(C)cn4)cc3C(=O)N([C@@H](C)CO)C[C@H]2C)cc1	-8.3
O=C(NCc1nc2ccccc2[nH]1)C1=C[C@H](c2ccc(Br)cc2)C[C@H](OCCCCO)O1	1.4
C[C@H]1CN([C@@H](C)CO)S(=O)(=O)c2ccc(Br)cc2O[C@H]1CN(C)C(=O)c1ccccc1F	1.5&-0.6
CC(C)C[C@H]1CN(CCCC[C@H]2CNC(=O)C(=O)N2CCC2CCCCC2)C(=O)C(=O)N1CCC1CCCCC1	0.1
C[C@H](CO)N1C[C@H](C)[C@H](CN(C)C(=O)Nc2ccc(F)cc2)Oc2ccc(NS(C)(=O)=O)cc2CC1=O	-1.2
CO[C@H](CN(C)C(=O)c1ccccc1F)[C@@H](C)CN([C@H](C)CO)S(=O)(=O)c1ccc(C)cc1	-1.1
COc1ccc(S(=O)(=O)Nc2ccc3c(c2)C(=O)N([C@H](C)CO)C[C@H](C)[C@@H](CN(C)C)O3)cc1	-3.1
Cc1cn(CC(=O)N2CCN(c3ccccn3)CC2)c(=O)[nH]c1=O	3.2
COc1ccc(S(=O)(=O)N(C)C[C@H]2OCCCC[C@H](C)Oc3ccc(NC(=O)NC4CCCCC4)cc3C(=O)N([C@H](C)CO)C[C@@H]2C)cc1	-0.8

A run of entries of the results above, for reference:
SMILES	MLL AF4-AF9 inh
Cc1ccc(-c2ccccc2[C@H]2[C@@H](C#N)N(c3ncc(-c4ccccc4)s3)[C@@H]2CO)cc1	1.3
CC=Cc1ccc2n(c1=O)C[C@H]1[C@H](CO)[C@@H](C(=O)NCC(F)(F)F)N(C(=O)c3cccnc3)[C@@H]21 (mixture of isomers)	-0.3
C[C@@H]1CN([C@H](C)CO)C(=O)c2cccc(NS(=O)(=O)c3ccccc3)c2O[C@@H]1CN(C)Cc1ccc(C(=O)O)cc1	-0.6
NC(CO)c1csc(NC(=O)Nc2ccccc2Cc2ccccc2)n1 (stereo not given)	8.9
COc1ccc(CN(C)C[C@@H]2OCCCC[C@@H](C)Oc3ccc(NS(=O)(=O)c4cn(C)cn4)cc3C(=O)N([C@@H](C)CO)C[C@H]2C)cc1	-8.3
O=C(NCc1nc2ccccc2[nH]1)C1=C[C@H](c2ccc(Br)cc2)C[C@H](OCCCCO)O1	1.4
C[C@H]1CN([C@@H](C)CO)S(=O)(=O)c2ccc(Br)cc2O[C@H]1CN(C)C(=O)c1ccccc1F	1.5&-0.6
CC(C)C[C@H]1CN(CCCC[C@H]2CNC(=O)C(=O)N2CCC2CCCCC2)C(=O)C(=O)N1CCC1CCCCC1	0.1
C[C@H](CO)N1C[C@H](C)[C@H](CN(C)C(=O)Nc2ccc(F)cc2)Oc2ccc(NS(C)(=O)=O)cc2CC1=O	-1.2
CO[C@H](CN(C)C(=O)c1ccccc1F)[C@@H](C)CN([C@H](C)CO)S(=O)(=O)c1ccc(C)cc1	-1.1

Continuation.
SMILES	MLL AF4-AF9 inh
CC(C)CN1C(=O)[C@@]2(c3ccc([N+](=O)[O-])cc3)CC(=O)N(CC3C4CC5CC(C4)CC3C5)[C@@H]2c2ccc(CO)cc21 (stereo not given in full)	-1.8
O=C(C[C@H]1CC[C@@H]2[C@H](COC[C@@H](O)CN2Cc2ccccc2F)O1)N[C@H]1CCN(Cc2ccccc2)C1	-0.2
CCCNC(=O)N1C[C@@H]2[C@H](c3ccccc31)[C@@H](CO)N2Cc1ccc2c(c1)OCO2	-0.2
CCC(=O)N1CC2(C1)[C@@H](c1ccc(-c3ccccc3OC)cc1)[C@@H](CO)N2C(C)=O	-1.9
C[C@H]1CN([C@@H](C)CO)C(=O)c2cccc(NC(=O)Nc3ccc4c(c3)OCO4)c2O[C@@H]1CN(C)CC1CC1	7.3
CCn1cc(CN2CCCC(C(=O)Nc3cccc(-n4cccn4)c3)C2)cn1 (stereo not given)	0.7
C[C@@H]1CN([C@@H](C)CO)C(=O)c2cccc(NC(=O)c3ccc(-c4nccs4)cc3)c2O[C@@H]1CN(C)Cc1ccc(-c2ccccc2)cc1	2.3
CN1c2ccc(C3=CCCCC3)cc2[C@@H]2[C@@H](CCN2C(=O)C2CCCCC2)[C@H]1CO	25*
CC1(C(=O)NS(=O)(=O)C2CC2)CCN(C(=O)c2ccc(F)c(Cl)c2)C1 (stereo not given)	-1.9
Cc1ccc(-c2ccccc2[C@H]2[C@@H](CO)N(S(C)(=O)=O)[C@H]2C#N)cc1	-0.8
COc1ccccc1Cc1c(-c2cccc(Br)c2)nc2ccc(Br)cn12	0.5
C[C@@H]1CN([C@H](C)CO)C(=O)c2cc(C#CCN(C)C)cnc2O[C@@H]1CN(C)C(=O)Cc1ccncc1	-6.9
COc1ccc(NC(=O)c2cc(-c3ccc(F)cc3OC)n[nH]2)c(C)c1	-4.0
C[C@@H]1CN([C@@H](C)CO)C(=O)Cc2cc(NC(=O)Cn3cnnn3)ccc2O[C@H]1CN(C)Cc1ccc(Cl)c(Cl)c1	8.9
C[C@@H]1CN([C@H](C)CO)C(=O)c2cccc(NC(=O)Nc3ccc(C(F)(F)F)cc3)c2O[C@H]1CN(C)C(=O)Nc1ccccc1	-0.1
CNC[C@H]1Oc2c(NC(=O)NC(C)C)cccc2C(=O)N([C@H](C)CO)C[C@@H]1C	-0.8
CC(C)[C@@H]1Cc2[nH]n(C)c(=O)c2[C@H](c2ccc(F)cc2)O1	0.1
Cc1ccc(S(=O)(=O)Nc2cccc3c2O[C@@H](CN(C)CC2CC2)[C@@H](C)CN([C@H](C)CO)C3=O)cc1	-2.0
CCCNC(=O)N1[C@@H](C#N)[C@@H](c2ccc(C3=CCCCC3)cc2)[C@@H]1CO	-9.6
COc1cccc(NC(=O)N(C)C[C@@H]2Oc3ncc(/C=C/c4ccccc4)cc3C(=O)N([C@@H](C)CO)C[C@@H]2C)c1	9.8
CO[C@H]1CN(C)C(=O)c2cc(NS(C)(=O)=O)ccc2OC[C@H](C)N(Cc2ccccc2)C[C@H]1C	-2.1
CN(C)C(=O)C[C@H]1C[C@@H]2c3cc(NC(=O)c4ccc5c(c4)OCO5)ccc3O[C@@H]2[C@H](CO)O1	-0.9
C[C@@H]1CN([C@H](C)CO)C(=O)c2cccc(NC(=O)c3nc4ccccc4s3)c2O[C@@H]1CN(C)Cc1ccc(-c2ccccc2)cc1	2.4
O=C(C[C@H]1CC[C@@H](NC(=O)Nc2ccc(C(F)(F)F)cc2)[C@H](CO)O1)NCc1cc(F)cc(F)c1	0.5
O=C(N[C@H]1CC[C@@H](CCNC(=O)C2CCCC2)O[C@@H]1CO)c1ccccn1	-0.6
CCCCN1CC(C)(C)Oc2cccc(F)c2S1(=O)=O	-3.3
O=C(N[C@@H]1CC[C@H](CC(=O)N2CCc3ccccc3C2)O[C@@H]1CO)C1CCC1	-14
COc1ccc(S(=O)(=O)Nc2ccc3c(c2)C(=O)N([C@H](C)CO)C[C@H](C)[C@@H](CN(C)S(=O)(=O)c2ccc(OC)cc2)O3)cc1	-0.7
CC(C)C#Cc1cnc2c(c1)C(=O)N([C@@H](C)CO)C[C@H](C)[C@H](CN(C)C(=O)c1cccnc1)O2	-2.0
CCCNC(=O)N1C[C@H](O)COC[C@@H]2O[C@@H](CC(=O)N3CCN(C)CC3)CC[C@H]21	-2.8
COCC(=O)N1[C@H](CO)[C@H](c2ccccc2-c2ccccc2F)[C@@H]1C#N	-2.1
O=C(C[C@H]1C[C@@H]2c3cc(NC(=O)c4cccnc4)ccc3O[C@@H]2[C@@H](CO)O1)NCc1ccccc1F	-1.5
COc1ccc(S(=O)(=O)Nc2ccc3c(c2)C(=O)N([C@@H](C)CO)C[C@H](C)[C@H](CN(C)C(=O)Nc2ccc(C(F)(F)F)cc2)O3)cc1	-2.0
C[C@H](CO)N1C[C@H](C)[C@@H](CN(C)C(=O)Nc2ccccc2)Oc2ncc(-c3cccnc3)cc2C1=O	-2.8
CO[C@@H]1CN(C)C(=O)c2ccc(NC(=O)C3CC3)cc2OC[C@@H](C)N(C(=O)c2ccccn2)C[C@@H]1C	-1.8
Cc1cc(C(=O)Nc2cccc3c2O[C@@H](CN(C)Cc2ccc(Oc4ccccc4)cc2)[C@H](C)CN([C@H](C)CO)C3=O)n(C)n1	5.0
C[C@H]1CN([C@@H](C)CO)C(=O)Cc2cc(NC(=O)CCCCCC(=O)Nc3ccccc3N)ccc2O[C@@H]1CN(C)Cc1ccc(C(F)(F)F)cc1	-1.8
CCOC(=O)[C@]12CCCC=C1N(Cc1cccc3ccccc13)C(=O)[C@H](CC(=O)N1CCN(C(=O)C3CC3)CC1)C2	0.7
O=C(C[C@@H]1C[C@H]2c3cc(NC(=O)CC4CC4)ccc3O[C@H]2[C@H](CO)O1)NCc1ccccc1F	-0.6
C[C@@H]1CCCCO[C@H](CN(C)C(=O)CCCN(C)C)[C@@H](C)CN([C@@H](C)CO)C(=O)c2cc(NC(=O)NC3CCCCC3)ccc2O1	2.6
C[C@@H]1CN([C@@H](C)CO)C(=O)Cc2cc(NS(=O)(=O)c3cccs3)ccc2O[C@@H]1CN(C)Cc1ccc(C(=O)Nc2ccccc2N)cc1	2.4
C[C@@H]1CN([C@@H](C)CO)C(=O)c2cccc(NC(=O)Nc3ccc(F)cc3)c2O[C@H]1CN(C)C	-1.5
CN1C(=O)c2cc(NC(=O)C3CC3)ccc2OC[C@H]2O[C@@H](CC(=O)NCCc3ccncc3)CC[C@@H]21	-11
C[C@H](CO)N1C[C@H](C)[C@H](CN(C)S(=O)(=O)c2ccc(F)cc2)Oc2ccc(NC(=O)Nc3cccc4ccccc34)cc2CC1=O	0.7

This is a subset, so the mix of outcomes need not match the whole.
